# Screening data as filed in PubChem BioAssay.
# FEN1 inh – blocks human flap endonuclease 1; P39748; Recombinant FEN1 flap cleavage, fluorescence, 15 min; Potency, µM (highest dose often 114 µM), for inactives: at the highest dose activity change, negative = inhibition, actives largely listed as inhibitors; 390,000 compounds, 0.35% hits; further: nearly all actives have a fitted effect of over 65% in size
# Target sequence (P39748 whole entry, looked up): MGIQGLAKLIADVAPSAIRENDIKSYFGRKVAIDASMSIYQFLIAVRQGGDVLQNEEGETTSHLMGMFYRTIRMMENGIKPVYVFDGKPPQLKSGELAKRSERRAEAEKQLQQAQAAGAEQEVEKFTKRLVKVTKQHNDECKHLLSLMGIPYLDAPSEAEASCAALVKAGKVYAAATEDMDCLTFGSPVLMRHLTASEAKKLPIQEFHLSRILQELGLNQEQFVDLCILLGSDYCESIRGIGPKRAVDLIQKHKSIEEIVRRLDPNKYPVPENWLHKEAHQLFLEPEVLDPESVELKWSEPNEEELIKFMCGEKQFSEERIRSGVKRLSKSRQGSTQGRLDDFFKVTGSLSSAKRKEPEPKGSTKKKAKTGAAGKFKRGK
#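 Compounds are tested as a concentration series against 10 nM FEN1; after a 15 min room-temperature preincubation, 50 nM substrate starts cleavage, with plate reads at 0 and 15 min. Normalized responses are fitted by a Hill equation.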
# TDP1 inh – blocks human tyrosyl-DNA phosphodiesterase 1; recombinant TDP1, AlphaScreen DNA substrate cleavage; 350,000 compounds, 0.28% hits; Potency, µM (titrated, usually from 130 µM), without a hit: top-dose activity change, negative = inhibition, hits mostly inhibitors; AID 485290; Q9NUW8; further: nearly all actives have a fitted effect of over 40% in size
# Target sequence (Q9NUW8 whole entry, looked up): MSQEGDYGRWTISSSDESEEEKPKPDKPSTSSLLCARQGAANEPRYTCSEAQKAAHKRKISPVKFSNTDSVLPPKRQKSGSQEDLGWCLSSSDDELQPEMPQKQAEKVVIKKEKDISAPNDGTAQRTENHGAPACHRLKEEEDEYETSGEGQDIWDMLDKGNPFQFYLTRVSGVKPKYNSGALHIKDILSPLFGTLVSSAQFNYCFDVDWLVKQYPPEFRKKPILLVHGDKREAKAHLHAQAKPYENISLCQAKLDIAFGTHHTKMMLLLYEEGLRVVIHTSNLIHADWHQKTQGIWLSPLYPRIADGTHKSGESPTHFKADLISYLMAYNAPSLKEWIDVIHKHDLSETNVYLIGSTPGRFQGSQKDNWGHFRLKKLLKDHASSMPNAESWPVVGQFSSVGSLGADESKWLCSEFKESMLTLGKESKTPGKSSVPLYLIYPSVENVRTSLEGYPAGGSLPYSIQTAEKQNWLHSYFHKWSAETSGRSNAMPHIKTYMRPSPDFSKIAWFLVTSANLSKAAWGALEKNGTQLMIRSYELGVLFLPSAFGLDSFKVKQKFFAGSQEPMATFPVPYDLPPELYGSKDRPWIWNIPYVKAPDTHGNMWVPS
#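 Steps: enzyme plus compound, 15 min RT; add biotin/phosphotyrosine-FITC oligonucleotide (15 nM final), react 5 min; add donor/acceptor beads (10 ug/ml final), 10 min; read AlphaScreen. Tdp1 at 1 nM final.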
# The depositor's hits bear a star; · = no result given; & = joins results of further samples; [ ] = dose if it differs, or a comment. The call rests on the fitted dose curve; in most records, active means well fitted inhibition curve with a large enough effect; inconclusive means small, poorly fitted or top-dose-only effect; inactive means no such curve, though single readings can be large or run the other way. On the % scale 0 is the no-effect control and ±100 the full control effect; potency means the concentration at half of the fitted maximal effect. Some of the compounds tested; most or all hits stand in other tables.
SMILES,FEN1 inh,TDP1 inh
COc1ccc(C(=O)N2CCN(S(=O)(=O)c3ccc(F)cc3)CC2)cc1OC,-3%,-2%
COc1cccc(NC(=O)CN(C)CC(=O)Nc2ccccc2-c2ccccc2)c1,-14%,-4%
Cc1cc(CNC(=O)Cn2cc([N+](=O)[O-])cn2)c2ccccc2n1,7%,4%
CCOC(=O)c1sc(NC(=O)CNC(=O)Cn2cnc3sc(C)c(C)c3c2=O)nc1C,33%,2%
O=C(Nc1nc(-c2cccc3ccccc23)cs1)c1cnccn1,9%,4%
COc1ccc(C(O)Cn2cc([N+](=O)[O-])nc2C)cc1 (centres undefined),-2%,-7%
COc1ccc(CNc2ccc([N+](=O)[O-])cc2C)cc1,4%,6%
Cc1ccc(O)c(CNc2nccs2)c1,5%,4%
CCCNC(=O)CCC(=O)Nc1ncc(-c2ccc(C)cc2)n1C,3%,-3%
CC(=O)[C@@H]1[C@@H](C)N(Cc2ccccc2)C(=O)N[C@H]1c1cccc(C(F)(F)F)c1,-3%,7%[21 µM]
O=C(NC1CCCCC1)C12CC3CC(CC(Cl)(C3)C1)C2,-1%,3%
CCOC(=O)C(O)C1CCc2c([nH]c3ccc(C)cc23)C1=O (centres undefined),-9%,-2%
C=CCNC(=S)Nc1cccc2[nH]ncc12,-5%,6%
Cc1ccc(Cn2ccc(=O)c(OCc3ccccc3)c2C)cc1,3%,1%
COC(=O)c1ccc(Cn2nnc3c(=O)[nH]c(C4CCCN(S(=O)(=O)c5ccccc5Cl)C4)nc32)cc1 (centres undefined),2%&1%,4%&6%
S=C(NCc1ccco1)Nc1ccccc1Cl,-8%,6%
CCCNC(=O)N1CCN(Cc2ccco2)CC1,17%,0%
C[C@H](NC(=O)c1nc[nH]c1C(=O)N1CCN(c2ccccc2)CC1)C(=O)OCc1ccccc1,-13%,·
Cc1ccc(/C=N/Nc2ccc(F)cc2F)s1,-3%,·
CC(c1ccccc1)n1cnc2ccccc2c1=O (centres undefined),0%,2%
Cc1c(C(=O)NCC2CCCO2)oc2ccc(S(=O)(=O)N3CC(C)CC(C)C3)cc12 (centres undefined),-4%,7%
CSc1nc(N)nc(SCCS(=O)(=O)c2ccc(Cl)cc2)c1C#N,-21%,-2%
CCCNc1c(N)n(-c2ccccc2)c(=O)[nH]c1=O,-10%,-2%
Cc1ccc(/C=C/C(=O)OCC(=O)NCc2ccccc2)o1,-1%,1%
Cc1cc(Oc2ccccc2)nc(SCC(N)=O)n1,1%,-3%
COc1ccc(C(=O)OCC[N+]2(C)CCOCC2)cc1,9%,5%
O=C(NC(Cc1c[nH]c2ccccc12)C(=O)Nc1ccc(F)cc1)c1cccs1 (centres undefined),-15%,5%
COc1ccc2[nH]c(=O)c(C(c3nnnn3CC3CCCO3)N3CCCCC3)cc2c1 (centres undefined),3%,3%
COc1ccc(/C=C/C(=O)OC(C)CN2CCOCC2)cc1 (centres undefined),-14%,3%
CCOc1cccc(C(=O)NNC(=O)C2C3C=CC(C3)C2C(=O)O)c1 (centres undefined),-15%,-6%
Cc1nc(N2CCN(C(=O)c3cnccn3)CC2)c2c3c(sc2n1)CC(C(C)(C)C)CC3 (centres undefined),-10%,·
CCN(CC)C(=O)C1CCCN(C(=O)c2oc3ccc(C)cc3c2C)C1 (centres undefined),-8%,2%
CN(C)c1ccc(C(=O)OCC(=O)Nc2ccc(N3CCOCC3)cc2)cc1,14%,3%
Cc1ccc(S(=O)(=O)N2CCC(=O)N(CCOC(=O)Nc3cc(C)cc(C)c3)CC2)cc1,-27%,-5%&4%
CN(C)CCCN(C(=O)c1cccs1)c1nc(-c2ccccc2)cs1,-2%,-2%
COC(=O)c1ccn(-c2nc(-c3ccco3)cc(C(F)(F)F)n2)n1,1%,3%

# One compound at a time, from the list above. Screens in order: FEN1 inh, TDP1 inh
# Results for CN(C)c1ccc(C(=O)OCC(=O)Nc2ccc(N3CCOCC3)cc2)cc1 : 14%, 3%
# Results for COC(=O)c1ccn(-c2nc(-c3ccco3)cc(C(F)(F)F)n2)n1 : 1%, 3%

# (more compounds)
SMILES,FEN1 inh,TDP1 inh
CCOC(=O)Cn1nc(C)c(NC(=O)CCc2ccc(OC)cc2)c1C,2%,0%
Cn1c(C(=O)NCc2cccnc2)cc2sccc21,7%,11%
CN=C(c1ccccc1)c1c(C)cccc1C,9%,-3%
Cc1ccc(NS(=O)(=O)c2c(C)[nH]c(=O)[nH]c2=O)cc1C,-5%,3%
COc1ccc(CCNC(=O)CN2C(=O)CCSc3ccccc32)c(OC)c1,1%,·
O=C(CCn1c(=O)oc2ccc(Cl)cc21)N1CCN(c2ccccc2)CC1,-2%,·
O=C1[C@H]2[C@H](ON3CCCC[C@H]23)C(=O)N1c1cccc(C(F)(F)F)c1,2%,-2%
Cc1cccc(-c2noc(CN(C(=O)c3c(-c4ccccc4Cl)noc3C)C(C)C)n2)c1,4%,6%
N#CCC(=O)Nc1ccc(C(=O)OCC(=O)NCCCc2ccccc2)cc1,1%,·
Cn1nccc1C(=O)N1CCCC(Nc2ccc(F)cc2)C1 (centres undefined),21%,3%
CC1(C)C(Cl)C(=O)C(C(=O)c2ccccc2)C(=O)C1Cl (centres undefined),2%,·
CN1CCN(Cc2c(O)ccc3c(=O)c(Oc4ccccc4Cl)c(C(F)(F)F)oc23)CC1,17%,1%
CN(/N=C/c1ccc(Br)o1)C1=NS(=O)(=O)c2ccccc21,3%,0%
CCN1CCN(S(=O)(=O)c2ccc(Cl)c(C(=O)Nc3nnc(CC(C)C)s3)c2)CC1,-3%,3%
Cc1ccc2oc3nc(C)c(C(=O)Nc4cccc(C(F)(F)F)c4)cc3c(=O)c2c1,-7%,5%
CCCNC(=O)N1CCN(S(C)(=O)=O)CC1,8%,3%
CN(C)S(=O)(=O)c1cccc(NC(=O)c2cc(-c3cccs3)nn2-c2cccc(Cl)c2)c1,-11%,7%
CC(OC(=O)c1cccc(Cl)c1)C(=O)NC1CCCCC1C (centres undefined),11%,1%
CC(=O)N1CCc2cc(S(=O)(=O)NC(C(=O)Nc3ccc4c(c3)OCCO4)C(C)C)ccc21 (centres undefined),-4%,8%
Cc1c(C(=O)Nc2ccc(Cc3ccncc3)cc2)cccc1[N+](=O)[O-],1%,5%
O=C(CN1CCN(S(=O)(=O)N2CCOCC2)CC1)Nc1ccc(Cl)c(Cl)c1,-4%,-2%
CC(NC(=O)Nc1ccc2c(c1)OCO2)C1CCCO1 (centres undefined),-4%,-2%
COc1cccc(CNc2ccc(F)c(Cl)c2)c1,-11%,0%
C=CCNC(=O)/C(C#N)=C/c1ccc(SC)cc1,-12%,7%
COc1ccccc1NC(=S)NC1CCCCC1,0%,-11%
COc1cc2c(cc1O)C(Cc1ccc(O)cc1)N(C)CC2 (centres undefined),·,10%[56.1 µM]
Cc1cc(-c2ccc(C)c(S(=O)(=O)N3CCN(c4ccc([N+](=O)[O-])cc4)CC3)c2)on1,-7%,6%
O=C1c2ccccc2NC(c2ccco2)N1/N=C/c1ccco1 (centres undefined),-12%,5%
Cc1cc(C(=O)CN2C(=O)c3ccccc3C2=O)c(C)n1C1CC1,11%,6%
COC(=O)C1=C(C)NC=C([N+](=O)[O-])C1c1ccc(OC)cc1 (centres undefined),-11%,0%
CCOc1nc(NCCO)nc(Nc2cc(Cl)ccc2OC)n1,-16%,0%
COc1ccc(OC(C)C(=O)N2CC(C)OC(C)C2)cc1 (centres undefined),11%,6%
CCOc1ccc(CN2CCCC(N3CCN(c4ccc(OC)cc4)CC3)C2)cc1 (centres undefined),27%,·
CCOc1ccc(CCNC(=O)COC(=O)COc2ccc(Cl)cc2)cc1OCC,9%,·
C/C(N)=C(/C#N)C(=O)COC(=O)c1cc(-c2ccccc2)nc2ccc(Br)cc12,·,-1%
CCCCNc1ccc(S(N)(=O)=O)cc1[N+](=O)[O-],·,0%
CCC(Oc1ccc(F)cc1)C(=O)N1CCCCCCC1 (centres undefined),19%,·
COc1ccc(C2CC(Cn3cc(C#N)c(=O)n(C)c3=O)ON2C)cc1 (centres undefined),-13%,6%
CCOc1ccc(NC(=O)NCCCN2CCCC2)cc1,-14%,6%
Cn1c(N)c(C(=O)COC(=O)c2cc(C3CC3)nc3ccccc23)c(=O)n(Cc2ccccc2)c1=O,-23%,7%&5%
CCC(C)(C(=O)NC1CCCCC1)N(Cc1ccco1)C(=O)c1cnccn1 (centres undefined),-5%,1%
CCC(C)(C)NC(=O)CN(C(=O)CNS(=O)(=O)c1ccc(C)cc1)c1ccc2c(c1)OCCO2,3%,6%
Cc1sc(NC(=S)Nc2ccc(F)cc2)c(C(N)=O)c1C,0%,6%
CC(Oc1cc(C(F)(F)F)cc(C(F)(F)F)c1)C(=O)NC(N)=O (centres undefined),-10%,-6%
COc1ccccc1CN(C)C(=O)C(c1ccccc1)c1ccccc1,-17%,·
CC(C)Oc1ccc(CNC(=O)C2CCCN(S(=O)(=O)N3CCOCC3)C2)cc1 (centres undefined),0%,0%
Cc1ccccc1-c1nc(CSc2nc3c(c(=O)[nH]2)CCC3)c(C)o1,17%,-3%
CCC1(CC)C(=O)C2=C3C1[C@H](C(=O)OC)CC(C(=O)OC)C[C@H]3n1c(=O)n(-c3ccccc3)c(=O)n1[C@H]2C (some centres undefined),4%&-5%,5%
CCOc1ccc(CNC(=O)CCn2c(=O)oc3ccccc32)cc1OC,10%,5%
COc1cc(OC)cc(C(=O)Nc2ccccc2-c2nnn(CC(N)=O)n2)c1,-6%,0%
C=CCNCCCCOc1ccc(OCC)cc1,5%,6%
C/C(Cc1ccccc1)=N\NC(=O)c1cc(C(C)(C)C)[nH]n1,3%,5%
CC1=C(C(=O)N(C)C)C(c2cccs2)NC(=O)N1 (centres undefined),11%,4%[56.1 µM]
O=C(N/C(=C\c1ccc(Cl)cc1)C(=O)N1CCOCC1)c1ccc([N+](=O)[O-])cc1,-6%,1%
CCCCOC(=O)c1ccc(NC(=O)C(=O)NCC2CCCO2)cc1 (centres undefined),-2%,5%
CCOc1ccc2nc(CN3CCN(Cc4ccsc4)C(CCO)C3)ccc2c1 (centres undefined),15%,0%
CCC1CCCCN1CC(=O)c1c(C)[nH]c2ccccc12 (centres undefined),1%,-1%
CCCCc1noc(-c2c(-c3ccccc3Cl)noc2C)n1,-6%,·
CC(C)Oc1cccc(C(=O)Nc2ccc(N3CCN(S(C)(=O)=O)CC3)cc2)c1,4%,3%

# Among those listed so far, these contain four or more nitrogen atoms:
SMILES,FEN1 inh,TDP1 inh
Cc1cc(CNC(=O)Cn2cc([N+](=O)[O-])cn2)c2ccccc2n1,7%,4%
CCOC(=O)c1sc(NC(=O)CNC(=O)Cn2cnc3sc(C)c(C)c3c2=O)nc1C,33%,2%
O=C(Nc1nc(-c2cccc3ccccc23)cs1)c1cnccn1,9%,4%
CCCNC(=O)CCC(=O)Nc1ncc(-c2ccc(C)cc2)n1C,3%,-3%
C=CCNC(=S)Nc1cccc2[nH]ncc12,-5%,6%
COC(=O)c1ccc(Cn2nnc3c(=O)[nH]c(C4CCCN(S(=O)(=O)c5ccccc5Cl)C4)nc32)cc1 (centres undefined),2%&1%,4%&6%
C[C@H](NC(=O)c1nc[nH]c1C(=O)N1CCN(c2ccccc2)CC1)C(=O)OCc1ccccc1,-13%,·
CSc1nc(N)nc(SCCS(=O)(=O)c2ccc(Cl)cc2)c1C#N,-21%,-2%
CCCNc1c(N)n(-c2ccccc2)c(=O)[nH]c1=O,-10%,-2%
COc1ccc2[nH]c(=O)c(C(c3nnnn3CC3CCCO3)N3CCCCC3)cc2c1 (centres undefined),3%,3%
Cc1nc(N2CCN(C(=O)c3cnccn3)CC2)c2c3c(sc2n1)CC(C(C)(C)C)CC3 (centres undefined),-10%,·
COC(=O)c1ccn(-c2nc(-c3ccco3)cc(C(F)(F)F)n2)n1,1%,3%
Cc1cccc(-c2noc(CN(C(=O)c3c(-c4ccccc4Cl)noc3C)C(C)C)n2)c1,4%,6%
Cn1nccc1C(=O)N1CCCC(Nc2ccc(F)cc2)C1 (centres undefined),21%,3%
CCN1CCN(S(=O)(=O)c2ccc(Cl)c(C(=O)Nc3nnc(CC(C)C)s3)c2)CC1,-3%,3%
CN(C)S(=O)(=O)c1cccc(NC(=O)c2cc(-c3cccs3)nn2-c2cccc(Cl)c2)c1,-11%,7%
O=C(CN1CCN(S(=O)(=O)N2CCOCC2)CC1)Nc1ccc(Cl)c(Cl)c1,-4%,-2%
Cc1cc(-c2ccc(C)c(S(=O)(=O)N3CCN(c4ccc([N+](=O)[O-])cc4)CC3)c2)on1,-7%,6%
CCOc1nc(NCCO)nc(Nc2cc(Cl)ccc2OC)n1,-16%,0%
COc1ccc(C2CC(Cn3cc(C#N)c(=O)n(C)c3=O)ON2C)cc1 (centres undefined),-13%,6%
Cn1c(N)c(C(=O)COC(=O)c2cc(C3CC3)nc3ccccc23)c(=O)n(Cc2ccccc2)c1=O,-23%,7%&5%
CCC(C)(C(=O)NC1CCCCC1)N(Cc1ccco1)C(=O)c1cnccn1 (centres undefined),-5%,1%
COc1cc(OC)cc(C(=O)Nc2ccccc2-c2nnn(CC(N)=O)n2)c1,-6%,0%
C/C(Cc1ccccc1)=N\NC(=O)c1cc(C(C)(C)C)[nH]n1,3%,5%
